nsP2pro primary: Primary qHTS for inhibitors of NSP2Pro chikungunya virus (CHIKV); Polyprotein P1234 (Chikungunya virus (strain S27-African prototype)), Q8JUX6; FRET peptide cleavage, nsP2pro, fluorescence 1 h; Potency, µM (series often up to 24.9 µM), inactives show at the highest dose activity change, negative = inhibition, most hits filed as inhibitors; actives 1.1% (n = 31,000); AID 1964107, 2024; active means well fitted inhibition curve with a large enough effect; inconclusive means small, poorly fitted or top-dose-only effect; inactive means no such curve, though single readings can be large or run the other way; also: nearly all actives have a fitted effect of over 60% in size; a reference inhibitor and vehicle were the controls
The depositor's hits bear a star; i = inactive; ? = inconclusive; & = joins results of further samples; [ ] = remark or other dose. % is scaled to controls: 0 for no effect and ±100 for the full control effect; potency is read from the fitted curve at half-maximal effect. Not all compounds are listed, so the mix of outcomes need not match the whole.

SMILES | nsP2pro primary
C=CC1(C)CC(O)C(C(=C)C(=O)OC)C(O)C1C(=C)CO (configuration not stated) | -19.3%
COc1ccc(Cc2nc3ccccc3n2Cc2ccccc2F)cc1 | -5.7%
O=C(NCNC(=O)NC1C(=O)NC(=O)N1CO)NC1C(=O)NC(=O)N1CO (configuration not stated) | -7.5%
CCN(CC)CCOC(=O)C1(C2CCCCC2)CCCCC1 | 11.0%
COc1ccc([C@@H](NC(=O)c2cc3ncccn3n2)C2CC(O)C2)cn1 (some centres not stated) | i
CO[C@H](C(=O)[C@@H](O)[C@@H](C)O)C1Cc2cc3cc(O[C@H]4C[C@@H](O[C@H]5C[C@@H](O)[C@H](O)[C@@H](C)O5)[C@@H](O)[C@@H](C)O4)c(C)c(O)c3c(O)c2C(=O)[C@H]1O[C@H]1C[C@@H](O[C@H]2C[C@@H](O[C@H]3C[C@](C)(O)[C@H](O)[C@@H](C)O3)[C@H](O)[C@@H](C)O2)[C@H](O)[C@@H](C)O1 (some centres not stated) | 5.2%
CCc1ccc(NC(=O)CN2CCSc3ccc(S(=O)(=O)N4CCCC4)cc32)cc1 | -32.0%
O=C(COc1ccccc1F)OCc1cc(=O)n2nc(C3CC3)sc2n1 | -30.3%
CC(C)C1C(=O)Nc2ccc(S(=O)(=O)NCCc3ccc(Cl)cc3)cc21 (configuration not stated) | -24.9%
O=C(NC1CCN(c2ccc3nnc(-c4ccccc4)n3n2)CC1)C1CCCC1 | -7.5%
COc1ccc(NC(=O)Cn2ncc3c(C)n(Cc4cccc(Cl)c4)c(C)c3c2=O)cc1 | ?
Cc1cc(C)cc(Nc2nnc(-n3nc(C)cc3C)c3ccccc23)c1 | -10.9%
COc1c(-c2ccc(O)cc2)cc(OC)c2c1oc1cc(O)c(OC3OC(CO)C(O)C3O)cc12 (configuration not stated) | 90.6%[activator][10 µM]
Cc1cn2c(=O)cc(CN3CC[C@@](C)(O)[C@@H](O)C3)nc2s1 | -10.6%
COc1cccc(CN2CCC[C@@H](O)[C@H](NC(=O)c3ccc(OCc4ccccc4)cc3)C2)c1 | i

Continued, starting with the last two of the part before.
SMILES | nsP2pro primary
Cc1cn2c(=O)cc(CN3CC[C@@](C)(O)[C@@H](O)C3)nc2s1 | -10.6%
COc1cccc(CN2CCC[C@@H](O)[C@H](NC(=O)c3ccc(OCc4ccccc4)cc3)C2)c1 | i
CC(C)C[C@H](NC(=O)[C@@H](Cc1c[nH]c2ccccc12)NC(=O)[C@H](Cc1ccc(O)cc1)NC(=O)[C@H](CO)NC(=O)[C@H](Cc1c[nH]c2ccccc12)NC(=O)[C@H](Cc1cnc[nH]1)NC(=O)[C@@H]1CCC(=O)N1)C(=O)N[C@@H](CCCN=C(N)N)C(=O)N1CCC[C@H]1C(=O)NCC(N)=O | 38.1%[activator][10 µM]
COc1cccc(NC(=O)C2CCCN2S(=O)(=O)c2ccc3c(c2)C(C)(C)C(=O)N3C)c1 (configuration not stated) | 76.1%[activator]
Cc1nnc(CNC(=O)C2CCC(=O)N(CCN3CCOCC3)C2)o1 (configuration not stated) | -0.3%
O=S(=O)(c1ccccc1)N1CC(c2nc(Cc3cccnc3)no2)C1 | -19.7%
CN(C)[C@@H]1CN(C(=O)CCc2ccccc2)C[C@H]1CO | -4.6%
O=C(CCc1ccccc1)N1CCCC(CN2CCCC2)CC1 (configuration not stated) | 1.4%
CCOC(=O)C1CCCCN1S(=O)(=O)c1csc(C(N)=O)c1 (configuration not stated) | -11.5%
CCCC(=O)Nc1cc(C(=O)NCc2ccc(OC)cc2)ccc1S(=O)(=O)c1ccc(Cl)cc1 | -16.3%
COc1cc(OC)c(NC(=O)c2csc3c2CCC(C)C3)cc1Cl (configuration not stated) | -16.3%
O=C(NCC(c1ccc(Cl)cc1)N1CCCCC1)c1ccc(F)cc1 (configuration not stated) | -7.4%
O=S(=O)(c1ccc2c(c1)OCCO2)N1CCN(S(=O)(=O)c2cccc3cccnc23)CC1 | -6.2%
COc1ccc(CC2CCOC3(CCN(S(=O)(=O)c4c(C)nn(C)c4C)CC3)C2)cc1 (configuration not stated) | i
C=C1CC2C3CCC4=CC(=O)C=C[C@]4(C)[C@@]3(F)[C@@H](O)C[C@]2(C)[C@@]1(O)C(=O)COC(C)=O (some centres not stated) | -6.6%
Cc1ccc(NS(=O)(=O)c2ccc3c(c2)CCCC(=O)N3)cc1C | -1.3%
CC(CCc1ccc(O)cc1)O[C@@H]1O[C@H](CO[C@@H]2OC(CO)[C@H](O)[C@H]2O)[C@@H](O)[C@H](O)[C@H]1O (some centres not stated) | -1.7%[10 µM]

2 entries drawn at random from the list so far, as already listed:
SMILES | nsP2pro primary
COc1cccc(NC(=O)C2CCCN2S(=O)(=O)c2ccc3c(c2)C(C)(C)C(=O)N3C)c1 (configuration not stated) | 76.1%[activator]
CC(C)C[C@H](NC(=O)[C@@H](Cc1c[nH]c2ccccc12)NC(=O)[C@H](Cc1ccc(O)cc1)NC(=O)[C@H](CO)NC(=O)[C@H](Cc1c[nH]c2ccccc12)NC(=O)[C@H](Cc1cnc[nH]1)NC(=O)[C@@H]1CCC(=O)N1)C(=O)N[C@@H](CCCN=C(N)N)C(=O)N1CCC[C@H]1C(=O)NCC(N)=O | 38.1%[activator][10 µM]

Carrying on.
SMILES | nsP2pro primary
Cc1ccncc1-c1c(C)nn2c1N(Cc1ccc(C(=O)O)cc1)CCC2 | -7.3%[39.2 µM]
O=S(=O)(Nc1cccc2cccnc12)c1ccccc1 | i
O=C(NCc1ccc2c(c1)OCO2)c1ccc2c(c1)N(Cc1c(F)cccc1Cl)C(=O)c1ccccc1S2 | -18.7%
Cc1ccc(-c2nnc(Nc3cccc(C(F)(F)F)c3)c3ccccc23)cc1S(=O)(=O)N1CCOCC1 | -12.2%
CCOc1c2c(c(OCC)c3ccccc13)C(=O)N(c1ccc(CC(=O)NS(=O)(=O)c3ccccc3)cc1)C2 | ?
Cc1ccnc(NC(=S)N2CCN(c3cc(C(F)(F)F)cc(C(F)(F)F)c3)CC2)c1 | -19.7%
O=C(NCCc1ccccc1)c1cc2sccc2n1Cc1ccc(F)cc1 | 42.6%[activator]
C=CC(=O)Nc1cccc(Nc2nc(Nc3ccc(NC4CN(CCF)C4)cc3OC)ncc2C(F)(F)F)c1 | 16.0%
CSCCC(NS(=O)(=O)c1ccc2c(c1)oc(=O)n2C)C(=O)N1CCN(c2cc(C)ccc2C)CC1 (configuration not stated) | -12.9%
Cc1noc2c(NCc3ccccc3)cc(-c3cccnc3)nc12 | i
COc1c(O)cc2oc3cc(O)c(CC=C(C)C)c(O)c3c(=O)c2c1CC=C(C)C | 33.4%[activator]
CCCn1c(-c2ccc(F)cc2)nc2c(N(C)CCN(C)C)nc(C)nc21 | -3.2%
CC1CCc2c(cc(Br)c(F)c2Br)N1C=O (configuration not stated) | ?
COc1ccc(OC)c(CCNc2nc3ccccc3c3nc(-c4cccnc4)nn23)c1 | -12.7%
CCCCCOc1ccc(/C=C/C(=O)Nc2sc(C(C)=O)c(C)c2C(=O)OCC)cc1OC | -23.9%
CCOc1ccccc1NC(=O)CN1C(=O)CC(c2ccc(C)c(C)c2)=Nc2ccccc21 | -24.7%
COC(=O)CN1C(C(=O)c2ccccc2)=C(OC(=O)c2ccc(F)cc2)c2ccccc2S1(=O)=O | ?
COc1ccc(-n2nc3ccc(NC(=O)c4cc5ccccc5o4)cc3n2)cc1Cl | -15.7%
COC(=O)C1=C(C)N=C2SC=C(CC(=O)NCCCN3CCCC3=O)N2C1c1ccccc1 (configuration not stated) | -28.6%
O=S(=O)(Nc1cccc2cccnc12)c1ccc2ccccc2c1 | i
CC(=O)O[C@H]1CN2CCC1CC2 | 15.0%
COc1cccc(-c2nnc3n2N=C(c2cc(OC)ccc2OC)CS3)c1 | ?
C[C@@H]1CC[C@]2(C(=O)O[C@@H]3O[C@H](CO)[C@@H](O)[C@H](O)[C@H]3O)CC[C@]3(C)C(=CCC4[C@@]5(C)C[C@@H](O)[C@H](O)[C@@](C)(C(=O)O[C@H]6[C@H](O)C[C@@]7(C)C(CC[C@]8(C)C7CC=C7[C@H]9[C@](C(=O)O[C@@H]%10O[C@H](CO)[C@@H](O)[C@H](O)[C@H]%10O)(CC[C@@H](C)[C@@]9(C)O)CC[C@]78C)[C@@]6(CO)C(=O)O)C5CC[C@]43C)[C@@H]2[C@]1(C)O (some centres not stated) | 50.0%[5.1 µM]
CCOC(=O)c1ccccc1NC(=O)c1sc2nc3n(c(=O)c2c1C)CCCC3 | -25.7%
N#CC[C@H](C1CCCC1)n1cc(-c2ncnc3[nH]ccc23)cn1 | 7.0%&14.0%&5.1%
CCC(C)/C=C(C)/C=C/C1=CC2=C(Cl)C(=O)C(C)(OC(C)=O)C(=O)C2=CN1CCCCC(N)C(=O)O (configuration not stated) | -21.1%[10 µM]
CCNC(=O)C1OC(n2cnc3c(N)nc(NCCc4ccc(CCC(=O)O)cc4)nc32)C(O)C1O (configuration not stated) | -10.0%
CC[C@@H]1C[C@H]2CC[C@H](O2)[C@H](C)C(=O)O[C@@H](C)C[C@@H]2CC[C@@H](O2)[C@@H](C)C(=O)O[C@H](CC)C[C@H]2CC[C@H](O2)[C@H](C)C(=O)O[C@@H](C)C[C@@H]2CC[C@@H](O2)[C@@H](C)C(=O)O1 | ?
C=CC1(C)C=C2C(=O)CC3C(C)(C)CCCC3(C(=O)O)C2(O)CC1 (configuration not stated) | -0.8%
CC1=C(c2ccc(C)c(C)c2)S(=O)(=O)N=C1N1CCC(C(=O)NC(C)Cc2ccco2)CC1 (configuration not stated) | ?

Laid out differently: results already given.
| Molecule | nsP2pro primary |
| --- | --- |
| C=CC1(C)C=C2C(=O)CC3C(C)(C)CCCC3(C(=O)O)C2(O)CC1 (configuration not stated) | -0.8% |
| CCC(C)/C=C(C)/C=C/C1=CC2=C(Cl)C(=O)C(C)(OC(C)=O)C(=O)C2=CN1CCCCC(N)C(=O)O (configuration not stated) | -21.1%[10 µM] |
| COC(=O)C1=C(C)N=C2SC=C(CC(=O)NCCCN3CCCC3=O)N2C1c1ccccc1 (configuration not stated) | -28.6% |
| CC[C@@H]1C[C@H]2CC[C@H](O2)[C@H](C)C(=O)O[C@@H](C)C[C@@H]2CC[C@@H](O2)[C@@H](C)C(=O)O[C@H](CC)C[C@H]2CC[C@H](O2)[C@H](C)C(=O)O[C@@H](C)C[C@@H]2CC[C@@H](O2)[C@@H](C)C(=O)O1 | ? |

Following part.
SMILES | nsP2pro primary
Cc1cccc(N2CCN(CCCNC(=O)c3sc4ncccc4c3-n3cccc3)CC2C)c1 (configuration not stated) | -10.9%
O=C(NC1CCN(c2nnc3ccccn23)CC1)c1ccc(Cl)s1 | 3.4%
O=C(NCc1c[nH]c2ncccc12)c1ccccc1Cl | 3.8%[39.2 µM]
Cc1cc(Nc2c(Nc3nnc(-c4ccncc4)s3)c(=O)c2=O)ccc1Cl | i
Cc1ccc(-n2nc(C(=O)NCCc3cccc(C)c3)c3c4ccccc4n(C)c3c2=O)cc1 | -24.7%
CC(C)(C)NC(=O)N[C@H](C(=O)N1C[C@H]2[C@@H]([C@H]1C(=O)NC(CC1CCC1)C(=O)C(N)=O)C2(C)C)C(C)(C)C (some centres not stated) | -15.9%
O=C(/C=C/c1ccccc1Cl)Nc1cccc([S+](=O)([O-])Nc2ccccc2F)c1 | i
O=C(c1cccs1)N1CCCCCC1CN1CCCC1 (configuration not stated) | ?
c1ccc2c(Nc3ccn[nH]3)nc(-c3ccncc3)nc2c1 | 1.8%
CCc1c(C)[nH]c2c1C(=O)C(CN1CCOCC1)CC2 (configuration not stated) | -29.2%
CN(C/C=C/c1ccccc1)C(=O)C1CCC(=O)N(Cc2cccc(F)c2)C1 (configuration not stated) | i
CC1CCN(C(=O)CSc2nc(-c3ccc(C(C)C)cc3)no2)CC1 | -9.4%
Cc1nn(CCC(=O)NCc2cccc(Br)c2)c(=O)c2nn(-c3ccccc3)c(C)c12 | -20.8%
O=C(Nc1ccc(N2CCOCC2)nc1)c1cccs1 | 4.5%
Cc1ccc(C)c(NC(=O)C2CCCN2S(=O)(=O)c2ccc3c(c2)n(C)c(=O)c(=O)n3C)c1 (configuration not stated) | -26.3%

Brought forward from above: two entries, followed by the next part.
SMILES | nsP2pro primary
O=C(Nc1ccc(N2CCOCC2)nc1)c1cccs1 | 4.5%
Cc1ccc(C)c(NC(=O)C2CCCN2S(=O)(=O)c2ccc3c(c2)n(C)c(=O)c(=O)n3C)c1 (configuration not stated) | -26.3%
CC(=O)c1cccc(NC(=O)OC[C@H]2C[C@@H]3CCN2C[C@@H]3c2cc(C3CCCC3)nc(C)n2)c1 | i
Cc1ccc(-n2nc(C)c3c(C)cc(=O)n(CC(=O)NCc4ccc(OC(C)C)cc4)c32)cc1 | -7.0%
Cc1cccc(-n2ncc3c(Nc4ccc(Oc5ccc(Cl)cc5)cc4)ncnc32)c1 | -9.8%
O=C1CC2(CCCC2)CC(=O)N1CCCCN1CCN(c2ncccn2)CC1 | 4.7%
Cc1oc(-c2ccccc2)nc1CN1CCCC(C(=O)N2CCC(c3nc(C(=O)N4CCCC4)c(C)o3)CC2)C1 (configuration not stated) | -5.8%
CC1=C[C@@H](CNC(=O)CC(C)(C)C)[C@H](C(C)C)C[C@H]1CC(=O)NC1CCCC1 | ?
OC[C@H]1C[C@@H](NCc2ccc(F)cc2)[C@H](O)[C@@H]1O | -4.8%[39.2 µM]
COc1cccc(N2CCN(S(=O)(=O)c3cn(C)c(C)n3)CC2)c1 | -22.8%
N#Cc1cccc(S(=O)(=O)Nc2cnccc2C(=O)Nc2nc(-c3ccccc3)cs2)c1 | 0.6%
CSc1ccc(-c2nc3cccc(C)n3c2Nc2ccc3c(c2)OCO3)cc1 | 54.3%[activator]
CSc1nccc(N2CCC3(CCCN(CC4CC4)C3)C2)n1 (configuration not stated) | 4.5%
N#CC1C(=O)Nc2scc(-c3ccc(-c4ccccc4O)cc3)c2C1=O (configuration not stated) | -28.4%
Cc1ccc(N2CC(NC(=O)c3ccc(S(=O)(=O)N4CCCCC4)cc3)CC2=O)cc1 (configuration not stated) | -15.7%
CS(=O)(=O)NCCc1csc2nc(-c3ccccc3)nn12 | -10.6%

High-throughput results from PubChem BioAssay.
